Arbovirus anti: antivirals against arbovirus infection, primary screen, cell-based, full library, 10K replicate subset; arbovirus infection cell-based antiviral screen; inhibition, % at 10 µM; 200,000 tested, 0.37% active;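 active means inhibition from about 30%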;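 further: bluetongue infection of BSR cells; cell survival read as ATP light after 72 h; 0% = infected wells without compound and 100% = uninfected wells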
RecA intein inh: Mtb RecA intein splicing inhibitors, primary screen, biochemical, fluorescence, HTS; inhibition, %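 (about 9 µM by stock and volumes)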; cell-free RecA intein splicing; 290,000 tested, 0.75% active; Protein RecA (Mycobacterium tuberculosis (strain ATCC 25618 / H37Rv)), P9WHJ3; AID 2221, 2009; in the data active means inhibition above about 30%; inconclusive means no clear call, values can overlap the other calls;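 further: 0% = vehicle wells and 100% = reference inhibitor control wells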
Target sequence (P9WHJ3 whole entry, looked up): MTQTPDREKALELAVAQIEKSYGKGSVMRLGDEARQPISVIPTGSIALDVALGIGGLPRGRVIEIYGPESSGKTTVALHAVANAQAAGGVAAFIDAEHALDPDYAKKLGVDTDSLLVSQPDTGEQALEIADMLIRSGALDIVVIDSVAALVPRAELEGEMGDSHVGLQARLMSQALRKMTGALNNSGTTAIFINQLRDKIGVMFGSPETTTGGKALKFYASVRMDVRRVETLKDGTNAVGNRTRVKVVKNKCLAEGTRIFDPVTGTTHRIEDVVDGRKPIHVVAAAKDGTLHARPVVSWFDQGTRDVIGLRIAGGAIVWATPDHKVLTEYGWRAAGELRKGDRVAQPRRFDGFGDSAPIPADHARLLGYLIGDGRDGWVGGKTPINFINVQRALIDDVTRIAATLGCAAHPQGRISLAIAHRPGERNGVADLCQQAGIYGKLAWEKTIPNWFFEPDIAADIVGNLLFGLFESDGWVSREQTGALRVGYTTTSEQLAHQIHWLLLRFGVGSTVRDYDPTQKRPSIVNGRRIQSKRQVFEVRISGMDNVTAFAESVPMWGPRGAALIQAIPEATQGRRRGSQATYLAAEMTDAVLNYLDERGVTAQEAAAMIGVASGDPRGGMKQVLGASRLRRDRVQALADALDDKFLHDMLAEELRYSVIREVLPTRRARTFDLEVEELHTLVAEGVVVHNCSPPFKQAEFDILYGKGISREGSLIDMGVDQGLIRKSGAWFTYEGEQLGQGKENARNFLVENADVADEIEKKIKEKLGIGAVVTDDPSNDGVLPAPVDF
Mtb bLac sens: beta-lactam sensitization of Mtb H37Rv, H37Rv | M. tuberculosis H37Rv growth with meropenem, percent inhibition; hits of this screen are not shown here | 330,000 tested, 0.27% active | inhibition, % at 25 µM;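 active means about 74% or more and at least 40 points above the plate without the antibiotic, then above 30% in a dose series; inconclusive means first-round hits that could not be retested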;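 further: growth measured after seven days incubation then overnight dye step; 0% = bacteria only wells and 100% = bacteria with antibiotic; twin plates without the antibiotic show which effects depend on it; some results filed as inactive read as strong as hits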
Mtb H37Rv: M. tuberculosis H37Rv growth inhibitors, H37Rv strain (AID 1626); one-dose inhibition, % at 10 µM; IC50 in µM for titrated hits; M. tuberculosis H37Rv growth inhibition; higher % means a stronger effect; 220,000 tested, 0.95% active;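 active means confirmed in a dose series; inconclusive means inhibition above 80% but not taken into the dose series; inactive means below 80% or under 30% at every dose of the series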;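 further: bacteria incubated seven days before Alamar blue readout; 0% = bacteria only wells and 100% = bacteria with antibiotic wells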
YopH PTP inh: YopH tyrosine phosphatase inhibitors, primary screen, biochemical, fluorescence Ex485/Em525. YopH tyrosine phosphatase [Yersinia enterocolitica]. inhibition, %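 (about 10 µM by stock and volumes)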. 140,000 tested, 0.16% active. AID 898, 2007;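 active means inhibition of 50% or more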;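 further: controls were vehicle for no effect and minimum signal wells for full effect; inactives centre near -20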
Arbovirus anti repeat: second read-out of Arbovirus anti, no call of its own (marks repeat the call); inhibition, %; measured here: 10K subset replicate screen; many hits read low in the repeat;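 first of two repeat runs on a subset; 0% = infected and 100% = uninfected wells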
Starred values were filed as active, the others as inactive; ? = inconclusive; . = no result given.

SMILES	Arbovirus anti	RecA intein inh	Mtb bLac sens	Mtb H37Rv	YopH PTP inh	others
Cc1ccc(OCn2c(=O)sc3ccccc32)cc1	-13	11	-2	9%	-5
Cc1ccc(CNC(=O)c2ccc(CS(=O)Cc3cccc(Cl)c3)o2)cc1 (stereo not given)	.	-3.9	1	.	.
CCOc1cccc2sc(=NC(=O)CCS(=O)(=O)c3ccc(F)cc3)n(C)c12	.	3.6	-8	.	.
CCCn1c(SCC(=O)NCCc2ccc(Cl)cc2Cl)n[nH]c1=O	0	3.8	-8	11%	-28
COc1cccc(-c2cc(C(F)(F)F)n3nc(C(=O)N4CCC5(CC4)OCCO5)cc3n2)c1	0	-5.3	9	-1%	21
Cc1ccc(O)c(C(=O)/C=C/c2ccc3c(c2)OCCCO3)c1	-41	0.6	68	0%	-20
CCCCCc1c(O)c2ccccc2[nH]c1=O	-3	8.3	8	-8%	-19
Cc1ccc(N2NC(C)(c3cccs3)NC2=S)cc1 (stereo not given)	-33	-9.8	93	?	-22
CCN(CC(=O)Nc1ccccc1C(F)(F)F)C(=O)CN1C(=O)NC2(CCCC2)C1=O	.	-0.3	-5	.	.
COc1cc(/C=N/Nc2ccc3ccccc3c2)ccc1OC(=O)c1ccco1	-28	17	59	?	-27
CC[C@H]1c2[nH]c3ccccc3c2C[C@@H]2C(=O)N(c3ccc(F)cc3)C(=O)N21	.	4.4	-7	.	.
Cc1ncc([N+](=O)[O-])n1CCOC(N)=O	.	1.3	1	-1%	.
Cc1ccc2nc(NC(=O)CSc3nc(=O)n(CCN(C)C)c4c3CCCC4)sc2c1	.	2.8	-2	.	.
CN(C)CC[C@@H](c1ccc(Br)cc1)c1ccccn1	.	-1.8	82	-7%	.
Cc1ccc(C2=NCN(c3ccc(C(=O)O)cc3)C(=S)N2)cc1	3	-0.3	0	4%	.
COc1ccc(CCN2CC34C=CC(O3)C(C(=O)NCc3ccccc3)C4C2=O)cc1OC (stereo not given)	11	0.3	6	-2%	-40	Arbovirus anti repeat=4
CN(C)S(=O)(=O)c1ccc(Cl)c(NC(=O)CN2C(=O)NC3(CCCC3)C2=O)c1	.	0.0	-3	.	.
Cc1cccc(NC(=O)c2ccc(NCC3CCCO3)c([N+](=O)[O-])c2)n1 (stereo not given)	-3	0.7	-7	10%	.
Nc1ccc2nc(-c3ccc(N)c(Cl)c3)[nH]c2c1	4	-21	-11	2%	43
CCOC(=O)c1c(NC(N)=O)nc2n1CCC2	1	-5.9	-9	1%	.

Random excerpt: 7 compounds from above.
SMILES	Arbovirus anti	RecA intein inh	Mtb bLac sens	Mtb H37Rv	YopH PTP inh	others
CCOc1cccc2sc(=NC(=O)CCS(=O)(=O)c3ccc(F)cc3)n(C)c12	.	3.6	-8	.	.
Cc1ccc(OCn2c(=O)sc3ccccc32)cc1	-13	11	-2	9%	-5
COc1cc(/C=N/Nc2ccc3ccccc3c2)ccc1OC(=O)c1ccco1	-28	17	59	?	-27
Nc1ccc2nc(-c3ccc(N)c(Cl)c3)[nH]c2c1	4	-21	-11	2%	43
Cc1ccc(C2=NCN(c3ccc(C(=O)O)cc3)C(=S)N2)cc1	3	-0.3	0	4%	.
COc1cccc(-c2cc(C(F)(F)F)n3nc(C(=O)N4CCC5(CC4)OCCO5)cc3n2)c1	0	-5.3	9	-1%	21
COc1ccc(CCN2CC34C=CC(O3)C(C(=O)NCc3ccccc3)C4C2=O)cc1OC (stereo not given)	11	0.3	6	-2%	-40	Arbovirus anti repeat=4

Remaining list, next part:
SMILES	Arbovirus anti	RecA intein inh	Mtb bLac sens	Mtb H37Rv	YopH PTP inh	others
Cc1cc(C)c(OCC(=O)Nc2ccccn2)c([N+](=O)[O-])c1	-1	-0.7	-4	1%	-34
CC(=O)c1ccc(OCCNS(=O)(=O)c2ccc(-n3cnnn3)c(C)c2)cc1	.	-1.8	0	.	.
Cc1ccc(NC(=O)N(C)c2ccccc2)cc1	.	0.9	7	.	.
COc1cccc(CC(=O)OCC(=O)NC(=O)c2ccc(OC(F)F)cc2)c1	.	4.8	-11	.	.
Cc1ccc(CNC(=O)c2ccc(CN3CCOCC3)cc2)cc1	-5	0.5	-1	-8%	-12
Cc1nn(CCCC(=O)Nc2cc(Oc3ccccc3)cc([N+](=O)[O-])c2)c(C)c1[N+](=O)[O-]	-11	4.4	100	4%	3
CCC1CCC(NC2CCCCNC2=O)CC1 (stereo not given)	7	2.5	-1	-3%	-19
FC(F)(F)c1cc(CCN2CCNC[C@H]2Cc2cccc3ccccc23)cc(C(F)(F)F)c1	.	19	100	.	.
CC(/C=N/N1CCN(c2ccccc2)CC1)=C\c1ccccc1	-4	-2.9	1	-5%	-38
CC1=CC(=Nc2c(C)n(C)n(-c3ccccc3)c2=O)C=C(C)C1=O	2	-6.1	1	-3%	12
CC(NC(=O)CSc1nnc(-c2cccnc2)n1N)c1ccccc1 (stereo not given)	-3	6.8	-13	1%	.
CC(/C=N/NC(=O)c1nnn(-c2nonc2N)c1C(C)C)=C\c1ccco1	.	12	-12	.	.
Cc1ccc(C(=O)Nc2ccc(S(=O)(=O)Nc3cnc4ccccc4n3)cc2)cc1	.	0.0	-5	.	.
CCc1nccn1CCC(=O)N1CCc2c([nH]c3ccccc23)C1CC(C)C (stereo not given)	.	-1.7	-5	3%	.
Cc1cc(N)n(-c2ccc(C)c(C)c2)n1	0	1.7	10	2%	.
CC(=O)c1ccc(S(=O)(=O)N2CCC(Oc3ccc(-n4cnnn4)cc3)CC2)cc1	.	-2.6	0	.	.
Cc1cc(C)c2c(c1)cc(C)c1nnc(SCC(=O)N3CCCc4ccccc43)n12	6	-4.7	-7	0%	-39
CC(C)OC(=O)c1ccc(Cn2nnc3ccccc3c2=O)cc1	6	4.3	-2	-7%	-19
COc1ccc(Oc2ccc(/C=C/C(=O)c3cccc(OC)c3)cc2[N+](=O)[O-])cc1	3	9.7	-1	4%	-40
CC1(C)CC(=O)C(C=NCCN2CCN(C(=O)CCl)CC2)=C(O)C1	.	4.8	54	-2%	.

Arranged by SMILES length (low to high): 3 of the compounds above
SMILES	Arbovirus anti	RecA intein inh	Mtb bLac sens	Mtb H37Rv	YopH PTP inh	others
Cc1cc(N)n(-c2ccc(C)c(C)c2)n1	0	1.7	10	2%	.
CCc1nccn1CCC(=O)N1CCc2c([nH]c3ccccc23)C1CC(C)C (stereo not given)	.	-1.7	-5	3%	.
Cc1cc(C)c2c(c1)cc(C)c1nnc(SCC(=O)N3CCCc4ccccc43)n12	6	-4.7	-7	0%	-39

More records
SMILES	Arbovirus anti	RecA intein inh	Mtb bLac sens	Mtb H37Rv	YopH PTP inh	others
COc1ccc(N(CC(=O)N/N=C/c2cc(OC)ccc2OC)S(=O)(=O)c2ccccc2)cc1	.	-2.2	7	.	.
Cc1c(N2C(=O)c3ccccc3C2(O)c2ccccc2)c(=O)n(-c2ccccc2)n1C (stereo not given)	.	-1.7	1	-8%	.
Cc1cc(C(=O)N/N=C/c2ccc3c(c2)OCO3)c(C)o1	-20	-1.3	1	-3%	.
Cc1ccc2cccc(OCCOCCOc3ccccc3Br)c2n1	1	5.9	-13	8%	-16
COc1ccc(C(=O)/C=C/c2cccnc2)c(OC)c1	.	1.3	8	.	.
OCC(O)[C@@H](O[C@H]1O[C@H](CO)[C@@H](O)[C@H](O)[C@H]1O)[C@H](O)[C@@H](O)CO (stereo not given in full)	.	-2.6	2	.	.
COC(C(=O)Nc1ccnn1C1CCN(Cc2nccs2)CC1)c1ccccc1 (stereo not given)	.	5.1	?	.	.
COc1ccc(S(=O)(=O)N2CCCC2CNC(=O)C(=O)Nc2ccc(F)cc2)cc1 (stereo not given)	.	-1.1	2	.	.
O=C(CN1C(=O)c2ccccc2C1=O)NC1CCCCCC1	.	-0.5	-2	.	.
CC(C)N(Cc1ccccc1)C(=S)Nc1ccc(OC(F)F)cc1	12	4.1	8	13%	-20
C=CCOC(=O)C1=C[C@H](C2CCCCC2)[C@@H](CCCO)[C@H](OCC)O1	-2	2.6	2	-4%	.
COc1ccc(-n2c(Cc3cccn3C)nnc2SCC(=O)Nc2ccccc2C)cc1	-3	2.9	4	-2%	-38	Arbovirus anti repeat=-4
COc1ccccc1N1CCN(C(=O)CN(c2cc(C)cc(C)c2)S(C)(=O)=O)CC1	6	1.4	-8	-6%	-29
CCOC(=O)N1CCN(CC(=O)Nc2ccc([N+](=O)[O-])cc2C(=O)Nc2ccccc2F)CC1	-7	0.8	-3	7%	-7
COCCCn1c(SCC(=O)NC2CCCC2)nnc1-c1cccs1	.	-1.3	0	.	.
CC12CCC(C(=O)NCCN3CCCCC3)(CC1=O)C2(C)C (stereo not given)	4	0.0	4	1%	-10
Oc1c(Cl)cc(Cl)cc1C=Nc1ccc(Br)cc1	-16	-1.6	31	-8%	-80
O=C(Nc1ccccn1)c1ccc(C(=O)c2ccccc2)cc1	.	0.6	53	.	.
Cc1ccc(OCCn2ncc3ccccc3c2=O)c(C)c1	.	-0.5	6	.	.
COc1ccc2[nH]c3c(NCCN4CCCCC4)ncnc3c2c1	10	2.9	12	1%	-1
Brc1nc(-c2ccccc2)nc(-c2ccccc2)c1Br	.	2.7	0	.	.
O=C(CCCCCN1C(=O)CCC1=O)Nc1ncn[nH]1	0	0.5	-1	5%	15
Cc1cccn2c(=O)c(C=Nc3ccccc3)c(NCCO)nc12	1	-12	-8	3%	-46
COc1ccc(/C=C/C(=O)N[C@@H](C)C(=O)O)cc1	7	-0.2	8	1%	-33
CCOC(=O)C1CCCN(C(=O)/C(=C/c2ccco2)NC(=O)c2ccccc2)C1 (stereo not given)	.	0.3	1	.	.
CCOc1ccc(C(=O)N2CCC3(CC2)NCCc2[nH]cnc23)cc1OCC	.	2.1	-4	.	.
O=[N+]([O-])c1ccc(N2CCN(Cc3ccncc3)CC2)cc1	.	-2.2	-8	.	.
O=C(c1cc([N+](=O)[O-])ccc1N1CCOCC1)N1CCN(c2ccc([N+](=O)[O-])cc2)CC1	.	-1.8	-7	.	.
O=C(c1cn(CC(=O)N2CCCC2)c2ccccc12)C1CCCCC1	0	-2.8	0	-13%	-24
CCOC(=O)C(CC)n1cnc2c(cnn2-c2ccc(Cl)cc2)c1=O (stereo not given)	4	0.1	4	-4%	-36
Cn1c(SCC(=O)N2CCN(S(=O)(=O)c3ccccc3)CC2)nc2ccccc21	4	1.4	-8	-9%	14
COc1ccc(C(=O)CSc2ccc(-c3ccco3)nn2)cc1	0	5.6	9	-4%	-23
N#Cc1c(NCCO)ccc([N+](=O)[O-])c1NCCO	.	1.8	-6	-4%	.
CCCc1c(O)nc(SCC(=O)N2CCCCC2)[nH]c1=O	.	-4.0	19	.	.
Cc1ccc(-c2nc3ccccc3[nH]c2=O)cc1	.	-6.6	-7	-5%	.
Cc1cc(CN2CCCCC2C(=O)Nc2ccc(Oc3cccnc3)cc2)oc1C (stereo not given)	.	2.2	-10	.	.
CC(C)OCCCNc1nc2c([nH]1)c(=O)n(C)c(=O)n2C	3	-1.7	-5	2%	-7
CC(=O)c1cc2c(C)cc(=O)oc2cc1O	3	-0.2	-5	-6%	-36
CC(CN1CCN(Cc2ccccc2)CC1)OC(=O)c1ccco1 (stereo not given)	.	-1.6	0	12%	.

Compound activity deposited in PubChem BioAssay by several laboratories.

Some of the compounds tested; the hit share may differ from the screen's.
